Screening data (PubChem BioAssay)
A1 apoptosis 2 – blocks A1, raising caspase activity; MEF A1-2A-BIM cells, caspase-Glo luminescence, 3 h; percent of clofoctol response, DMSO zero; 24,000 tested, under 10 active; caspase activation, % (no concentration beside the values); in the data active = caspase activation above about 5.9%;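 also: wells of about 30 µL received 50 nL stock; the first replicate is given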
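Test system – A1-2A-BIM-expressing MEF cells · Input – 2500 cells/well · Medium – RPMI-1640 growth medium with 10% FBS · Compound dosing – 50 nL pinned compound · Timing – 3 h compound exposure at 37 °C · Technique – Caspase-Glo luminescence (DEVD substrate) · Evaluation – Caspase-3/7 activity from luminescence increase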
The depositor's hits bear a star. Not all compounds are listed, so the mix of outcomes need not match the whole.

SMILES	A1 apoptosis 2
C[C@@H]1CCCCO[C@@H](CN(C)Cc2ccccc2)[C@H](C)CN([C@H](C)CO)C(=O)c2cc(NS(=O)(=O)c3ccccc3)ccc2O1	-0.9
CNC[C@H]1Oc2ccc(NC(=O)Cc3ccccc3)cc2CC(=O)N([C@H](C)CO)C[C@@H]1C	-0.6
Cc1noc(C)c1NC(=O)Nc1ccc2c(c1)CC(=O)N([C@H](C)CO)C[C@@H](C)[C@@H](CN(C)C(=O)Nc1ccc(C(F)(F)F)cc1)O2	-0.2
C[C@@H]1CN([C@H](C)CO)C(=O)c2cccc(NC(=O)c3nc4ccccc4s3)c2O[C@H]1CN(C)CC1CCCCC1	0.0
COc1ccc(S(=O)(=O)N(C)C[C@H]2Oc3ccc(NC(=O)NC(C)C)cc3CC(=O)N([C@H](C)CO)C[C@@H]2C)cc1	-0.5
C[C@H](CO)N1C[C@H](C)[C@H](CN(C)C)Oc2ccc(NC(=O)Nc3ccc(F)cc3)cc2CC1=O	0.2
COc1ccc(S(=O)(=O)N(C)C[C@@H]2Oc3ccc(NC(=O)CCN4CCOCC4)cc3CC(=O)N([C@H](C)CO)C[C@@H]2C)cc1	-0.6
C[C@@H]1CCCCO[C@H](CN(C)S(C)(=O)=O)[C@@H](C)CN([C@@H](C)CO)C(=O)c2cc(NS(=O)(=O)c3cn(C)cn3)ccc2O1	-0.1
Cc1noc(C)c1NC(=O)N(C)C[C@H]1Oc2ccc(N(C)C)cc2C(=O)N([C@@H](C)CO)C[C@@H]1C	0.4
COc1ccc(CN(C)C[C@@H]2Oc3ccc(NC(=O)CCC(F)(F)F)cc3CC(=O)N([C@@H](C)CO)C[C@H]2C)cc1	0.4
C[C@H](CO)N1C[C@H](C)[C@@H](CN(C)C(=O)Nc2ccc(F)cc2)Oc2c(NC(=O)C3CC3)cccc2C1=O	-0.2
CC(C)COC(=O)N(C)C[C@@H]1OCc2cnnn2CCCC(=O)N([C@H](C)CO)C[C@@H]1C	0.2

The last two entries of the section before lead into the next.
SMILES	A1 apoptosis 2
C[C@H](CO)N1C[C@H](C)[C@@H](CN(C)C(=O)Nc2ccc(F)cc2)Oc2c(NC(=O)C3CC3)cccc2C1=O	-0.2
CC(C)COC(=O)N(C)C[C@@H]1OCc2cnnn2CCCC(=O)N([C@H](C)CO)C[C@@H]1C	0.2
Cc1noc(C)c1S(=O)(=O)Nc1ccc2c(c1)C(=O)N([C@@H](C)CO)C[C@@H](C)[C@H](CN(C)S(=O)(=O)c1c(C)noc1C)OCCCC[C@H](C)O2	-1.0
C[C@H](CO)N1C[C@H](C)[C@@H](CN(C)S(=O)(=O)c2cn(C)cn2)Oc2ccc(NC(=O)CCN3CCOCC3)cc2C1=O	1.6
C[C@@H]1CN([C@@H](C)CO)C(=O)c2cccc(NC(=O)c3cnccn3)c2O[C@@H]1CN(C)S(C)(=O)=O	0.0
C[C@H](CO)N1C[C@H](C)[C@H](CN(C)S(C)(=O)=O)Oc2ccc(NC(=O)CCCN(C)C)cc2C1=O	-0.5
COC(=O)CCCCCCC(=O)N/N=C/c1c(CO)cnc(C)c1O	-0.7
C[C@@H]1CN([C@@H](C)CO)C(=O)Cc2cc(NC(=O)Nc3ccccc3)ccc2O[C@H]1CN(C)S(=O)(=O)c1cccs1	-0.3
C[C@@H]1CCCCO[C@H](CN(C)C(=O)Nc2ccc(F)cc2)[C@@H](C)CN([C@@H](C)CO)C(=O)c2cc(NC(=O)Cc3ccccc3)ccc2O1	-0.5
CNC[C@H]1Oc2c(NS(=O)(=O)c3ccc(Cl)cc3)cccc2C(=O)N([C@H](C)CO)C[C@H]1C	1.4
C[C@H](CO)N1C[C@H](C)[C@@H](CN(C)S(=O)(=O)c2cn(C)cn2)Oc2c(NC(=O)C3CCCCC3)cccc2C1=O	0.9
C[C@@H]1CCCCO[C@@H](CN(C)C)[C@@H](C)CN([C@@H](C)CO)C(=O)c2cc(NS(=O)(=O)c3cccs3)ccc2O1	-1.2
Cc1ccc(S(=O)(=O)Nc2ccc3c(c2)C(=O)N([C@H](C)CO)C[C@@H](C)[C@H](CN(C)S(=O)(=O)c2ccc(C)cc2)O3)cc1	1.6
C[C@@H]1CCCCO[C@@H](CN(C)S(=O)(=O)c2cn(C)cn2)[C@H](C)CN([C@@H](C)CO)C(=O)c2cc(NS(=O)(=O)c3cn(C)cn3)ccc2O1	1.5
C[C@@H]1CCCCO[C@@H](CN(C)S(=O)(=O)c2ccc(Cl)cc2)[C@H](C)CN([C@@H](C)CO)C(=O)c2cc(NS(C)(=O)=O)ccc2O1	1.0
COc1ccc(S(=O)(=O)N(C)C[C@H]2Oc3ccc(N(C)C)cc3CC(=O)N([C@H](C)CO)C[C@H]2C)cc1	0.4
COc1ccc(NC(=O)Nc2ccc3c(c2)C(=O)N([C@H](C)CO)C[C@H](C)[C@H](CN(C)C(=O)CCC(F)(F)F)OCCCC[C@H](C)O3)cc1	0.0
C[C@@H]1CCCCO[C@H](CN(C)Cc2ccc3c(c2)OCO3)[C@@H](C)CN([C@@H](C)CO)C(=O)c2cc(NC(=O)Nc3cccc4ccccc34)ccc2O1	0.6
C[C@@H]1CN([C@H](C)CO)C(=O)c2cc(NC(=O)CCC(F)(F)F)ccc2O[C@@H](C)CCCCO[C@@H]1CN(C)C	-1.0
C[C@H](CO)N1C[C@H](C)[C@@H](CN(C)Cc2ccc(-c3ccccc3)cc2)Oc2ccc(NC(=O)C3CCCCC3)cc2CC1=O	0.1
C[C@@H]1CCCCO[C@@H](CN(C)C(=O)Nc2cccc3ccccc23)[C@H](C)CN([C@H](C)CO)C(=O)c2cc(NC(=O)NC3CCCCC3)ccc2O1	-0.5
CC(C)(C)OC(=O)CC[C@]12N=C(c3ccc(OCCCO)cc3)O[C@H]1c1ccccc1CN(CCS(=O)(=O)c1ccccc1)C2=O	0.5
CN(C)CCCOc1ccc(/C=N/NC(=O)c2ccccc2O)cc1	-1.9
C[C@H](CO)N1C[C@H](C)[C@@H](CN(C)Cc2ccc(Cl)c(Cl)c2)Oc2ccc(NS(=O)(=O)c3ccccc3)cc2C1=O	-0.3
C[C@@H]1CN([C@H](C)CO)C(=O)c2cccc(NC(=O)c3ccc(-c4nccs4)cc3)c2O[C@H]1CN(C)C	0.0
Cc1noc(C)c1NC(=O)Nc1ccc2c(c1)C(=O)N([C@H](C)CO)C[C@H](C)[C@H](CN(C)C(=O)C1CCCCC1)OCCCC[C@H](C)O2	-0.1
C[C@@H]1CN([C@H](C)CO)C(=O)Cc2cc(NS(=O)(=O)c3cn(C)cn3)ccc2O[C@H]1CN(C)Cc1ccc(C(F)(F)F)cc1	0.0
C[C@H](CO)N1C[C@H](C)[C@@H](CN(C)C(=O)OCc2ccccc2)OCc2cnnn2CCCC1=O	0.3
Cc1noc(C)c1NC(=O)Nc1ccc2c(c1)C(=O)N([C@H](C)CO)C[C@H](C)[C@H](CN(C)Cc1ccc(C(F)(F)F)cc1)O2	0.6
Cc1ccc(S(=O)(=O)N(C)C[C@H]2Oc3c(NS(=O)(=O)c4cn(C)cn4)cccc3C(=O)N([C@H](C)CO)C[C@H]2C)cc1	0.5
Cc1noc(C)c1NC(=O)N(C)C[C@H]1OCCCC[C@H](C)Oc2ccc(NS(=O)(=O)c3ccccc3)cc2C(=O)N([C@@H](C)CO)C[C@H]1C	2.0
C[C@@H]1CN([C@H](C)CO)C(=O)c2cc(NS(=O)(=O)c3ccccc3)ccc2O[C@H]1CN(C)C(=O)NC1CCCCC1	-2.0
Cc1noc(C)c1S(=O)(=O)Nc1ccc2c(c1)CC(=O)N([C@H](C)CO)C[C@@H](C)[C@@H](CN(C)C(=O)NC(C)C)O2	0.7
C[C@H]1CN([C@@H](C)CO)C(=O)c2cc(NS(=O)(=O)c3ccccc3)ccc2O[C@@H]1CN(C)CC1CC1	-0.7
COc1ccc(S(=O)(=O)Nc2ccc3c(c2)C(=O)N([C@@H](C)CO)C[C@H](C)[C@@H](CN(C)C(=O)Nc2c(C)noc2C)OCCCC[C@H](C)O3)cc1	-0.5
C[C@@H]1CN([C@@H](C)CO)C(=O)Cc2cc(NC(=O)Cc3ccccc3)ccc2O[C@H]1CN(C)Cc1ccc(C(=O)O)cc1	0.1
C[C@H]1CCCCO[C@@H](CN(C)C(=O)c2ccncc2)[C@@H](C)CN([C@@H](C)CO)C(=O)c2cc(NC(=O)NC3CCCCC3)ccc2O1	1.0
Cc1noc(C)c1NC(=O)N(C)C[C@@H]1Oc2c(NS(=O)(=O)c3cccs3)cccc2C(=O)N([C@@H](C)CO)C[C@@H]1C	0.2
CC(C)NC(=O)Nc1ccc2c(c1)C(=O)N([C@@H](C)CO)C[C@H](C)[C@H](CN(C)Cc1ccccc1)OCCCC[C@@H](C)O2	-0.6
COc1ccc(NC(=O)N(C)C[C@H]2OCCCC[C@H](C)Oc3ccc(NC(=O)Nc4ccc(F)cc4)cc3C(=O)N([C@H](C)CO)C[C@@H]2C)cc1	-0.8
CC(C)NC(=O)Nc1ccc2c(c1)C(=O)N([C@H](C)CO)C[C@@H](C)[C@H](CN(C)C)OCCCC[C@@H](C)O2	0.7
C[C@@H]1CCCCO[C@H](CN(C)C(=O)Nc2ccc(C(F)(F)F)cc2)[C@H](C)CN([C@@H](C)CO)C(=O)c2cc(NS(=O)(=O)c3ccc(F)cc3)ccc2O1	0.9
COCCCNC(=O)[C@@]1(Cc2ccccc2)N=C(c2ccc(OCCCO)cc2)O[C@H]1c1ccccc1	-0.6
C[C@@H]1CN([C@@H](C)CO)C(=O)CCCn2cc(nn2)CO[C@@H]1CN(C)C(=O)c1ccccc1	0.3
COc1ccc(NC(=O)N(C)C[C@@H]2OCCCC[C@H](C)Oc3ccc(NS(=O)(=O)c4ccccc4)cc3C(=O)N([C@@H](C)CO)C[C@@H]2C)cc1	-0.5
CC(C)NC(=O)N(C)C[C@H]1OCCCC[C@@H](C)Oc2ccc(NC(=O)Nc3cccc4ccccc34)cc2C(=O)N([C@@H](C)CO)C[C@H]1C	-0.8
C[C@@H]1CN([C@H](C)CO)C(=O)Cc2cc(N(C)C)ccc2O[C@H]1CN(C)S(=O)(=O)c1cccs1	0.8
C[C@@H]1CN([C@H](C)CO)C(=O)c2cc(NC(=O)NC3CCCCC3)ccc2O[C@@H](C)CCCCO[C@@H]1CN(C)Cc1ccc(Cl)c(Cl)c1	0.6
O=C(NO)c1cccc(C(=O)N/N=C/c2ccc(Oc3ccccc3)cc2)c1	-2.7
CCOC(=O)N(C)C[C@H]1OCc2cn(nn2)CCCC(=O)N([C@H](C)CO)C[C@H]1C	0.6
O=C(N/N=C/c1cn(S(=O)(=O)c2ccccc2)c2ccccc12)c1ccccn1	0.2
C[C@@H]1CN([C@H](C)CO)C(=O)Cc2cc(NC(=O)C3CC3)ccc2O[C@H]1CN(C)C(=O)Nc1cccc2ccccc12	0.3
C[C@@H]1CN([C@H](C)CO)C(=O)c2cccc(NC(=O)Nc3ccc(F)cc3)c2O[C@@H]1CN(C)C(=O)Nc1ccc(F)cc1	-0.2
C[C@H]1CN([C@@H](C)CO)C(=O)c2cccc(NC(=O)c3ccc(-c4nccs4)cc3)c2O[C@H]1CN(C)CC1CCCCC1	-0.8
C[C@@H]1CCCCO[C@@H](CN(C)C(=O)CCC(F)(F)F)[C@H](C)CN([C@@H](C)CO)C(=O)c2cc(NC(=O)C3CCCCC3)ccc2O1	-0.4
Cc1noc(C)c1NC(=O)Nc1ccc2c(c1)CC(=O)N([C@H](C)CO)C[C@H](C)[C@H](CN(C)C)O2	0.0
C[C@H]1CN([C@@H](C)CO)C(=O)CCCn2cc(nn2)CO[C@@H]1CN(C)S(=O)(=O)c1cccs1	-1.5
C[C@@H]1CN([C@@H](C)CO)C(=O)c2cccc(NS(=O)(=O)c3ccc(Cl)cc3)c2O[C@@H]1CN(C)Cc1ccc(C(=O)O)cc1	0.5
CC(C)NC(=O)Nc1ccc2c(c1)CC(=O)N([C@H](C)CO)C[C@@H](C)[C@@H](CN(C)C(=O)Nc1cccc3ccccc13)O2	-0.8
COC(=O)CCCCCCC(=O)N/N=C/c1ccc(-n2ccnc2)cc1	1.6
COc1ccc(S(=O)(=O)N(C)C[C@H]2OCCCC[C@@H](C)Oc3ccc(NC(=O)Nc4cccc5ccccc45)cc3C(=O)N([C@@H](C)CO)C[C@@H]2C)cc1	0.3
C[C@@H]1CCCCO[C@H](CN(C)Cc2ccccc2)[C@@H](C)CN([C@H](C)CO)C(=O)c2cc(NC(=O)Nc3ccc(F)cc3)ccc2O1	-0.6
C[C@H]1CN([C@@H](C)CO)C(=O)Cc2cc(NC(=O)Cn3cnnn3)ccc2O[C@@H]1CN(C)C(=O)Nc1cccc2ccccc12	1.4

Structural class, the compounds so far containing an aryl methoxy group
SMILES	A1 apoptosis 2
COc1ccc(S(=O)(=O)N(C)C[C@H]2Oc3ccc(NC(=O)NC(C)C)cc3CC(=O)N([C@H](C)CO)C[C@@H]2C)cc1	-0.5
COc1ccc(S(=O)(=O)N(C)C[C@@H]2Oc3ccc(NC(=O)CCN4CCOCC4)cc3CC(=O)N([C@H](C)CO)C[C@@H]2C)cc1	-0.6
COc1ccc(CN(C)C[C@@H]2Oc3ccc(NC(=O)CCC(F)(F)F)cc3CC(=O)N([C@@H](C)CO)C[C@H]2C)cc1	0.4
COc1ccc(S(=O)(=O)N(C)C[C@H]2Oc3ccc(N(C)C)cc3CC(=O)N([C@H](C)CO)C[C@H]2C)cc1	0.4
COc1ccc(NC(=O)Nc2ccc3c(c2)C(=O)N([C@H](C)CO)C[C@H](C)[C@H](CN(C)C(=O)CCC(F)(F)F)OCCCC[C@H](C)O3)cc1	0.0
COc1ccc(S(=O)(=O)Nc2ccc3c(c2)C(=O)N([C@@H](C)CO)C[C@H](C)[C@@H](CN(C)C(=O)Nc2c(C)noc2C)OCCCC[C@H](C)O3)cc1	-0.5
COc1ccc(NC(=O)N(C)C[C@H]2OCCCC[C@H](C)Oc3ccc(NC(=O)Nc4ccc(F)cc4)cc3C(=O)N([C@H](C)CO)C[C@@H]2C)cc1	-0.8
COc1ccc(NC(=O)N(C)C[C@@H]2OCCCC[C@H](C)Oc3ccc(NS(=O)(=O)c4ccccc4)cc3C(=O)N([C@@H](C)CO)C[C@@H]2C)cc1	-0.5
COc1ccc(S(=O)(=O)N(C)C[C@H]2OCCCC[C@@H](C)Oc3ccc(NC(=O)Nc4cccc5ccccc45)cc3C(=O)N([C@@H](C)CO)C[C@@H]2C)cc1	0.3
